BJeLR lethal: MLPCN primary cell-based screen for lethality selective to Ras in HRASV12 cells | BJeLR (HRASV12) viability, CellTiter-Glo ATP luminescence, 48 h; reference of the scale not given here | 300,000 compounds, 0.17% hits | inhibition, % (concentration not given with the values);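 active = replicate mean above 50%; inconclusive = above 50% but judged a plate artefact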;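 note: 50 nL library stock added to about 25 µL; numbers are from one replicate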
Sa RN4220 lethal: growth inhibition of S. aureus RN4220, primary screen, OD600 | 16 h | inhibition, % (no concentration beside the values) | 330,000 compounds, 0.33% hits;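 active = z-score of -3 or lower and OD600 up to 0.18 on both plates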;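 note: plate controls were untreated cells for no effect and reference antibiotic for full effect; stock transfer was 100 nL into about 80 µL; one replicate is shown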
Mtb hypoxia rep: PubChem AID 1159583 | M. tuberculosis hypoxia-regulated fluorescent reporter, fluorescence | fluorescence inhibition, % (concentration not given with the values) | 300,000 compounds, 0.1% hits;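 active = 35 to 45% if threefold the growth effect, above 45% if 1.5-fold the growth effect; inactive = the rest, general growth blockers included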;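 note: wells of about 50 µL received 100 nL stock; 0% = vehicle wells and 100% = reference inhibitor wells; whole bacteria with a GFP reporter of the hypoxia response; strong numbers were not always called active; many hits fall short of the cut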
PrP 5UTR inh: inhibition of PrP 5' UTR reporter expression; inhibition, % (no concentration beside the values); cell-based PrP 5' UTR mRNA reporter, plate reader; 340,000 compounds, 0.35% hits;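 active = every replicate at 50% or more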;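 note: 0 = median of the neutral control wells; tested in H4 reporter cells; numbers are from one replicate; inactives centre near -14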
Autofluor counter: compound fluorescence in toxin protease inhibitor counterscreen; fluorescence intensity (no concentration beside the values); compound autofluorescence counterscreen, microsphere flow cytometry; hits give high values; 360,000 compounds, 3.1% hits; AID 624483;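 active = at least 3 SD above the mean of all compounds, about 16000 in these data; inconclusive = too few beads counted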;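 note: 100 nL of 1 mM stock went into each well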
ugtP null kill: growth inhibition of ugtP-null S. aureus, primary screen, RN4220 ugtP deletion, OD600 | 16 h; some inactives read as strong as hits | growth inhibition, % (test concentration not listed) | 330,000 compounds, 0.54% hits | AID 1259309, 2017;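 active = z-score under -3 and OD600 up to 0.15 on both plates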;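 note: plate controls were untreated wells for no effect and antibiotic for full effect; wells of about 80 µL received 100 nL stock; the first replicate is given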
Mtb hypoxia rep growth: further read-out of Mtb hypoxia rep, marked with its call; growth inhibition, %; measured here: M. tuberculosis growth (absorbance);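 0% = vehicle and 100% = reference antibiotic; read after six days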
Starred values were filed as active, the others as inactive; ? = inconclusive; nt = not tested or not shown.

SMILES | BJeLR lethal | Sa RN4220 lethal | Mtb hypoxia rep | Mtb hypoxia rep growth | PrP 5UTR inh | Autofluor counter | ugtP null kill
COc1ccc(C(=O)N/N=C(\C)CC(=O)Nc2ccccn2)cc1OC | -11 | nt | nt | nt | -22 | 3567 | nt
CCCC(=O)C1=C(O)C(C(=O)OC)C(C)(C)CC1=Nc1ccncc1 (configuration not stated) | -1 | -0.3 | nt | nt | -2 | 2625 | 6
CC(C(=O)Nc1ccccc1C(=O)N1CCOCC1)N(c1ccccc1)S(C)(=O)=O (configuration not stated) | -11 | -0.8 | nt | nt | -10 | 4712 | 1
CC1CN(C(=O)c2cc3cc(F)ccc3[nH]2)CC(C)O1 (configuration not stated) | -1 | -0.2 | 8 | 6 | -22 | 3753 | -2
O=C(NCc1ccc(C(F)(F)F)cc1)C1CC(c2c(Cl)cccc2Cl)=NO1 (configuration not stated) | -8 | -6.4 | 18 | 6 | -8 | 3881 | 7
Cc1nc2ccc(NC(=O)c3ccc(Cl)c([N+](=O)[O-])c3)cc2s1 | -13 | 9.7 | 3 | 7 | -17 | 2384 | -1
COc1ccc(CN2CCCC(C(=O)Nc3cccc(-n4cccn4)c3)C2)cc1 (configuration not stated) | 7 | 0.4 | 2 | 1 | -6 | 6115 | 1
COc1ccc(S(=O)(=O)NNC(=O)c2csc(-n3nc(C)cc3C(F)(F)F)n2)cc1 | 1 | -0.9 | 19 | 6 | -14 | 3780 | 10
Cc1cccc(N2CCN(C(=O)N3CCOCC3)CC2)c1C | -11 | 5.2 | 12 | 10 | -13 | 3768 | -7
O=C(COC(=O)C1(c2ccc(F)cc2)CCCC1)N1CCOCC1 | 3 | -12 | 18 | 5 | -19 | 2987 | -3
O=C(NN=Cc1ccccc1Cl)c1ccc(-n2cnnn2)cc1 | nt | 7.5 | 5 | 5 | -6 | ? | -5
COc1cc(NC(=O)COc2ccccc2Cl)ccc1NC(=O)c1cccs1 | 12 | 12 | -5 | -6 | -4 | 2800 | -5
CCCCn1c(CNC(=O)c2cccs2)nc2ccccc21 | -2 | 2.2 | -5 | -8 | -4 | 5899 | 0
Nc1ccc[n+](Cc2ccccn2)c1 | 2 | 1.9 | nt | nt | -17 | 2395 | -4
CCC(=NNC(=O)c1c(C)nc2ccccn12)c1ccccc1 | nt | 0.3 | 16 | 0 | nt | nt | 6
Cc1ccc(CN2CCN(CC(=O)N=Nc3c(O)[nH]c4ccccc34)CC2)cc1 | -3 | 1.9 | -4 | 3 | -31 | 2039 | 0
COCCNC(=O)c1ccccc1NC(=O)c1ccc(Cl)c(S(=O)(=O)Nc2ccc(C)cc2C)c1 | 0 | -4.3 | -7 | 5 | -15 | 7996 | -18
O=C(CN(c1ccccc1)S(=O)(=O)c1ccccc1)NCCSCc1ccco1 | -1 | 2.0 | nt | nt | -15 | 3122 | 4
CCCCCn1c(CN2CCN(C(=O)OCC)CC2)nc2c1c(=O)n(C)c(=O)n2C | -6 | 4.6 | 6 | 4 | -54 | 7714 | -1
COC(=O)c1cc2ccsc2n1CC(=O)NCC1CCCO1 (configuration not stated) | 2 | 5.1 | 3 | -2 | -21 | 11168 | 9
COC(=O)c1c(NC(=O)CSc2ncn[nH]2)sc(C)c1C | -1 | nt | nt | nt | 4 | ? | nt
Cn1nc(C(=O)OCCN2C(=O)c3ccccc3C2=O)c2ccccc2c1=O | 6 | -2.7 | nt | nt | -9 | nt | -2
Cc1ccc(O)c(C(=O)c2cc(C#N)c(=O)n(-c3c(C)n(C)n(-c4ccccc4)c3=O)c2)c1 | -1 | 4.5 | 0 | -6 | 8 | 16705* | 8
COc1ccc(C(=O)Nc2ccc(NC(=O)CSc3nnc(-c4ccncc4)n3C)cc2)cc1 | -3 | 4.7 | -2 | 3 | -12 | 3521 | 6
Cc1ccc(S(=O)(=O)N2CCN(C(=O)CSc3nccn3C)CC2)cc1 | -6 | 3.1 | 3 | 12 | -16 | 3635 | 9
On1c(-c2ccccc2)nc2ncccc21 | 3 | 1.4 | 23 | 7 | -4 | 3594 | 2
CCc1nnc(NC(=O)C2CCCN2C(=O)Nc2ccccc2OC)s1 (configuration not stated) | -2 | -3.3 | 2 | 5 | -14 | 2918 | -4
Cc1ccc(S(=O)(=O)n2cc(C=O)c3ccccc32)cc1 | -20 | 1.4 | 1 | 4 | 2 | 4364 | -2
O=c1[nH]cc(S(=O)(=O)c2ccccc2)[nH]1 | nt | 5.6 | 3 | 2 | -9 | 2418 | -2
O=C(COCc1cc(-c2ccc3c(c2)OCO3)on1)N1CCN(c2cccc(C(F)(F)F)c2)CC1 | -3 | 4.4 | 0 | -8 | -26 | nt | 0
CCCC(=O)C1=C(N2CCCCC2)CC(C)(C)C(C(=O)OC)C1=O (configuration not stated) | -3 | 0.2 | 8 | -2 | -10 | 3950 | 8
Cc1ccc(CN2CCN(/N=C/c3cc(Br)ccc3F)CC2)cc1 | -4 | nt | nt | nt | -11 | 4015 | nt
COC(=O)[C@H](CCSC)NC(=O)NCc1cccs1 | -4 | -0.7 | 3 | 0 | 6 | 8148 | 3
CCOc1cc(N2CCOCC2)c(OCC)cc1NC(=O)C1=NN(c2cccc(C)c2)C(=O)CC1 | -3 | 7.9 | 6 | -5 | -4 | 4103 | -17
COc1ccc(C(=O)COC(=O)C(C(C)C)N2C(=O)C3C4C=CC(C4)C3C2=O)cc1 (configuration not stated) | 2 | 0.1 | nt | nt | -21 | 4712 | 4
O=C(CNC(=O)c1cccc(OC(F)F)c1)OCc1cc(=O)n2cc(Br)ccc2n1 | -7 | nt | nt | nt | -2 | 7097 | nt

Continued, overlapping the part above by 4 compounds.
SMILES | BJeLR lethal | Sa RN4220 lethal | Mtb hypoxia rep | Mtb hypoxia rep growth | PrP 5UTR inh | Autofluor counter | ugtP null kill
COC(=O)[C@H](CCSC)NC(=O)NCc1cccs1 | -4 | -0.7 | 3 | 0 | 6 | 8148 | 3
CCOc1cc(N2CCOCC2)c(OCC)cc1NC(=O)C1=NN(c2cccc(C)c2)C(=O)CC1 | -3 | 7.9 | 6 | -5 | -4 | 4103 | -17
COc1ccc(C(=O)COC(=O)C(C(C)C)N2C(=O)C3C4C=CC(C4)C3C2=O)cc1 (configuration not stated) | 2 | 0.1 | nt | nt | -21 | 4712 | 4
O=C(CNC(=O)c1cccc(OC(F)F)c1)OCc1cc(=O)n2cc(Br)ccc2n1 | -7 | nt | nt | nt | -2 | 7097 | nt
Cc1ccc2nc(SCC(=O)N3CCC(C)CC3)nc(=O)n2c1 | -2 | nt | nt | nt | -11 | 5508 | nt
NS(=O)(=O)c1ccc(N2CCN(S(=O)(=O)Cc3ccccc3)CC2)nc1 | nt | 0.0 | 8 | -12 | -33 | 3664 | 1
CCN(CC)S(=O)(=O)c1ccc(NC(=O)COC(=O)CNC(=O)C2CCCCC2)cc1 | nt | 3.0 | -4 | -10 | -15 | nt | 9
CC(=O)Nc1ccc(S(=O)(=O)Nc2cc(Cl)ccc2N2CCOCC2)cc1 | nt | 15 | 4 | 5 | -3 | 6482 | -6
COc1ccccc1N1C(=O)C2CC=CC(C)C2C1=O (configuration not stated) | 0 | 3.7 | 4 | 10 | -6 | 2403 | 8
CSC(=O)CC(=O)NC(=O)c1ccccc1 | 14 | -0.7 | -5 | -2 | -6 | 25369* | -6
CC1CN=C(NCc2ccccc2Cl)S1 (configuration not stated) | 11 | 3.5 | 9 | -4 | -19 | 5058 | 11
O=C(Nc1c(C(=O)N2CCOCC2)cnn1-c1ccccc1)c1ccccc1 | -2 | 0.9 | 6 | -1 | -17 | 11466 | -2
CC(C)=CCc1c(O)c(CC=C(C)C)c2occ(-c3ccc(O)cc3)c(=O)c2c1O | -13 | 22 | nt | nt | -30 | 5413 | 98*
O=C(CCN1C(=O)[C@@H]2Cc3ccccc3CN2C1=O)N[C@@H](Cc1ccccc1)C(=O)O | 2 | -1.4 | nt | nt | -18 | 5175 | -2
CSc1ccc(/C=N/NC(=O)c2ccccc2Cl)cc1 | -5 | nt | nt | nt | -61 | 3187 | nt
COC(=O)Cc1csc(NC(=O)c2ccc3ncsc3c2)n1 | nt | 4.0 | 1 | 0 | -41 | 3959 | -18
Cc1nc(-c2cccc(-c3noc(C)n3)c2)no1 | 0 | 5.5 | -7 | 5 | -4 | 10942 | -9
OC1CCCC1NCc1ccnc2cc(Cl)ccc12 (configuration not stated) | nt | 1.6 | 16 | 8 | -9 | 3411 | 9
COc1ccc(S(=O)(=O)N2CCCCCC2)cc1NS(=O)(=O)c1cc(C(=O)O)cc(C)c1C | nt | 4.1 | 2 | -1 | -10 | nt | 12
CC(=O)NN1C(=O)/C(=C\c2ccc(Br)o2)SC1=S | 6 | 6.9 | 2 | -1 | -5 | 2403 | -4
CCOC(=O)c1oc2ccc(C=NO)c(Cl)c2c1C | nt | 8.9 | -1 | 5 | nt | nt | 0
CC(=O)Nc1ccc(S(=O)(=O)N2CCC3(CC2)CC(=O)c2ccccc2O3)cc1 | -3 | 6.2 | 3 | 9 | -17 | 6528 | 10
COc1cc([N+](=O)[O-])cc([N+](=O)[O-])c1NC(=O)N1CCOCC1 | -9 | 1.3 | 6 | 9 | -11 | 3590 | 2
CC(=NNc1c([N+](=O)[O-])c(C)nn1C)c1ccc(F)cc1F | nt | 4.2 | 10 | 7 | nt | nt | 7
CC(=O)c1cc2c(cc1NS(=O)(=O)c1ccccc1Br)OCO2 | -4 | 3.3 | 3 | 2 | -14 | 3647 | -1
Cc1n[nH]c(=O)c2c(NC(=O)CSc3nnc(-c4ccncc4)n3C)oc(C)c12 | -12 | 2.2 | 7 | 11 | 1 | 5716 | 2
CC1(C)CC(=O)C2=C(C1)Nc1ncnn1C2c1ccccn1 (configuration not stated) | 7 | 6.7 | 4 | -2 | -5 | 4002 | 6
O=C(CNS(=O)(=O)c1ccc(Br)s1)N1CCC2(CC1)OCCO2 | 5 | -1.8 | nt | nt | -15 | 5224 | -5
COc1ccc(Cl)cc1NC(=O)CN(C)C(=O)Cc1ccsc1 | 5 | 3.0 | 11 | 7 | -24 | 5467 | 2
Clc1ccc(C2=Nn3c(Cn4nnc5ccccc54)nnc3SC2)cc1 | -8 | 18 | 14 | 2 | nt | nt | 3
COCCNc1c2c(c(C#N)c3nc4ccccc4n13)CCCC2 | 10 | 1.7 | 8 | 10 | -30 | 4163 | 2
CCSc1cc(N2CCCC2)nc(-c2ccc(F)cc2)n1 | -10 | 8.8 | 12 | 4 | -5 | 2427 | 7
COc1cc(C(=O)Nc2ccc(NC(=O)C3CC3)nc2)cc(OC)c1OC | 5 | -2.8 | nt | nt | -2 | 3031 | 2
C/C=C(\C)C(=O)OC(C)(C)[C@H]1Cc2cc3ccc(=O)oc3cc2O1 | 0 | 0.1 | -7 | 6 | -19 | 3358 | -13
O=C(CN1CCOCC1)Nc1ccc(F)cc1 | 8 | 2.8 | 7 | 7 | -16 | 2996 | 4
Cc1ccc(C)c(N(Cc2cc3ccc(C)cc3[nH]c2=O)C(=O)c2ccco2)c1 | 6 | 2.9 | 13 | 6 | -5 | 4660 | 6
COC(=O)[C@@H]1C[C@]2(OC(=O)c3ccccc3)C=CC(=O)C[C@@H]2N1C(=O)OCc1ccccc1 | -8 | nt | nt | nt | -1 | 3459 | nt
COc1ccc(/C=N/Nc2ncnc3scc(-c4ccccc4)c23)cc1OC | -13 | nt | nt | nt | -54 | 11847 | nt
Cc1cc(NC(=O)c2cc(-c3ccco3)on2)n(-c2ccccc2)n1 | 5 | 0.7 | 9 | 4 | -9 | 23364* | 3
CCCCn1c(N)c(-c2nc3ccccc3o2)c2c([N+](=O)[O-])nn(C)c(=O)c21 | 1 | 4.2 | 11 | 12 | -18 | 2582 | -3
O=C1CCN(Cc2ccccc2)CCN1[C@H](COc1ccccc1)Cc1ccccc1 | 3 | 9.0 | -3 | -1 | -48 | 3728 | -3
CCNc1ccc(C(=O)OCC(=O)NCCN2C(=O)CSC2=O)cc1[N+](=O)[O-] | 2 | 4.0 | 14 | 1 | 1 | 3250 | 7

Some of these compounds in order of count of non-hydrogen atoms, smallest number first.
SMILES | BJeLR lethal | Sa RN4220 lethal | Mtb hypoxia rep | Mtb hypoxia rep growth | PrP 5UTR inh | Autofluor counter | ugtP null kill
CCSc1cc(N2CCCC2)nc(-c2ccc(F)cc2)n1 | -10 | 8.8 | 12 | 4 | -5 | 2427 | 7
C/C=C(\C)C(=O)OC(C)(C)[C@H]1Cc2cc3ccc(=O)oc3cc2O1 | 0 | 0.1 | -7 | 6 | -19 | 3358 | -13
Cc1ccc(C)c(N(Cc2cc3ccc(C)cc3[nH]c2=O)C(=O)c2ccco2)c1 | 6 | 2.9 | 13 | 6 | -5 | 4660 | 6

An unsorted share of the library. About 4% of those tested had a hit in this group.
